# From PubChem BioAssay
# Sa growth 42C – blocks Staphylococcus aureus growth. S. aureus RN4220 growth, OD600, 20 h, 42 °C; hits give low values. relative growth, % (test concentration not listed). 0.53% of 170,000 active. AID 720641;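 active = growth at 42 °C up to 50% and 20 or more points under that at 30 °C, or under 10% at both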;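 also: 300 nL library stock went into each well; scaled to the means of positive and negative controls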
# GIV Gai3 FP – inhibitors of GIV GBA-motif binding to rat Galpha-i3; percent of control (FP), % (test concentration not listed); 0.42% of 210,000 active; P08753; Galpha-i3/FITC-GIV peptide fluorescence polarization, 90 min; hits give low values; scaled: aluminum fluoride 0%, vehicle 100%;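 active = replicate mean at 85% of control or lower, very high polarization wells dropped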;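 also: wells of about 15 µL received 100 nL stock; the first replicate is given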
# Target sequence (P08753 whole entry, looked up): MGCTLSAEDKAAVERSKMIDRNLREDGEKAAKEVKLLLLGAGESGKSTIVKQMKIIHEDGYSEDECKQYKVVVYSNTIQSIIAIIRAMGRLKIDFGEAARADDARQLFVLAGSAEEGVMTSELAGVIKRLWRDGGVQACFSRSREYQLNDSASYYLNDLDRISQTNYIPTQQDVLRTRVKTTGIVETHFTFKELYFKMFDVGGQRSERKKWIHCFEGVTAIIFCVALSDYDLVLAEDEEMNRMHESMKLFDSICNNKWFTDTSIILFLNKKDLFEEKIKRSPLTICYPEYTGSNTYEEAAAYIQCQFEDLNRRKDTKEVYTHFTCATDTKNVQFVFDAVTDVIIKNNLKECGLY
# HCMV NEC inh – disrupts HCMV UL50-UL53 complex binding. HTRF UL50-UL53 interaction, normalized percent inhibition. AID 1918969. inhibition, % (concentration not given with the values). 0.15% of 190,000 active;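 active = both replicates at 50% or more, plus weaker picks with an unusually low signal ratio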;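 also: stock transfer was 100 nL into about 20 µL; 0% = negative control wells and 100% = wells with untagged competitor protein; inactives centre near -12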
# Sa growth 42C second temp – recorded beside Sa growth 42C, whose call it bears; relative growth, %; measured here: growth at 30 °C;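 optical density after 20 h as mean of two plates; 100% = untreated growth and lower means inhibition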
# Active calls of the source: *; x = no result given; & = joins results of further samples.
1: CCn1nccc1C1CCCN1S(=O)(=O)c1cc(C)ccc1NC(C)=O (stereo unspecified)
2: COC(=O)c1cc(C(=O)OC)cc(-n2c(C)cc(C3=NNC(=Nc4ccc(OC)cc4)SC3)c2C)c1
3: CCc1ccccc1NC(=O)Cn1c(=O)n(-c2ccc(C)cc2)c(=O)c2c1c1cc(C)ccc1n2C
4: CCn1c(=O)c(SCC(=O)NCc2cccnc2)nc2ccccc21
5: CN(Cc1ccccc1)S(=O)(=O)c1cccs1
6: CS(=O)(=O)Nc1ccc(N2CCN(CC(=O)N3CCOCC3)CC2)cc1C(=O)O
7: CCn1nccc1C1CCCN1C(=O)NCC(=O)OC (stereo unspecified)
8: Cc1cccc(CNC(=O)CS(=O)(=O)c2cccc3nsnc23)c1
9: COc1ccc(NC(=O)C2Nc3ccc(Cl)cc3S(=O)(=O)N2)cc1 (stereo unspecified)
10: O=c1[nH]cc(CO)c(=O)[nH]1
assay / entry,1,2,3,4,5,6,7,8,9,10
HCMV NEC inh,-10,2,x,-42,-4,-2,-6,x,8,-14&-3&-3
Sa growth 42C,x,106,138,x,104,x,x,99,x,81
GIV Gai3 FP,95,x,103,112,105,98,101,100,102,99
Sa growth 42C second temp,x,98,96,x,96,x,x,92,x,89

11: COc1cccc(CN2C(=O)CN(C3CCCCC3)C(=O)C2c2ccc(OC(C)C)c(OC)c2)c1 (stereo unspecified)
12: Cc1cccc(NC(=O)CSc2nc3c(oc4ccccc43)c(=O)n2-c2ccc(F)cc2)c1
13: Oc1cc(Cc2ccccc2)cnc1CN1CCOCC1
14: CN1C(=O)c2cc(C(=O)N3CCC(C(N)=O)CC3)nn2CC1(C)C(=O)NC1CCCC1 (stereo unspecified)
15: O=C(CNc1cccc(Oc2ccccc2)c1)N1CCc2ccccc21
16: Cc1ccc(Nc2nc(C)c(NC(=O)C3CC(=O)N(c4ccccc4)C3)c(Nc3ccc(C)cc3)n2)cc1 (stereo unspecified)
17: COc1ccc(C2=Nc3ccccc3N(Cc3cccc(Cl)c3)C(=O)C2)cc1
18: O=C(COc1nc2ccccc2nc1N1CCOCC1)NC1CCCCC1
19: Cn1c(=O)c2c(nc(/C=C/c3cccc(Cl)c3)n2C)n(C)c1=O
20: O=c1[nH]cnc2c1ncn2C1OC(CO)C(O)C1O (stereo unspecified)
assay / entry,11,12,13,14,15,16,17,18,19,20
HCMV NEC inh,x,-34,-29,-6,-10,-38,-21,-42,-27,-15
Sa growth 42C,86,98,98,x,99,x,x,71,x,x
GIV Gai3 FP,101,101,100,100,x,96,99,x,107,115
Sa growth 42C second temp,86,79,83,x,90,x,x,86,x,x

21: Cc1ccc(NC(=O)N2CCN(S(=O)(=O)c3cc4c(cc3Cl)NC(=O)C(C)O4)CC2)c(C)c1 (stereo unspecified)
22: COC(=O)Nc1ccc(S(=O)(=O)Nc2cc(OC)nc(OC)n2)cc1
23: COc1ccc(NC(=O)CCc2c(C)nn3cnnc3c2C)c(OC)c1
24: Cc1ccc2snc(C(=O)N3CCN(C(=O)c4ccc(N(C)C)cc4)CC3)c2c1
25: O=C(Nc1ccccc1N1CCCC1)c1cccs1
26: Oc1[nH]c2ccccc2c1C=NCCCN1CCOCC1
27: c1ccc2sc(Cc3nn[nH]n3)nc2c1
28: CCCCn1c(CC(=O)O)nc2cc(S(=O)(=O)N3CCOCC3)ccc21
29: O=C(CSc1nc2ccccc2nc1N1CCOCC1)Nc1ccccc1
30: Cc1cc2c(cc(C(=O)NCc3cccnc3)n2Cc2ccc(Cl)cc2)o1
assay / entry,21,22,23,24,25,26,27,28,29,30
HCMV NEC inh,6,-11,-8,-30,-5,-14,-118,-24,-3,-1
Sa growth 42C,x,107,x,x,114,101,86,94,90,111
GIV Gai3 FP,110,104,100,105,x,105,106,x,103,112
Sa growth 42C second temp,x,99,x,x,84,113,87,99,84,78

31: CSc1ccc(S(=O)(=O)N2CC(=O)Nc3ccccc32)cc1
32: O=C(O)c1c(Cl)nc2ccccn12
33: Cc1nc(N2CCC(C)CC2)c2c(C)c(C(=O)N3CCN(c4ccc(F)cc4)CC3)sc2n1
34: CSc1nn(Cc2ccc(F)cc2)c(N)c1S(=O)(=O)c1ccc(Cl)cc1
35: COc1ccc(C2C(C(=O)O)c3cc(OC)c(OC)cc3C(=O)N2C)cc1OC (stereo unspecified)
36: Cc1c(C(=O)NC(=S)Nc2ccc(N3CCOCC3)cc2)oc2ccccc12
37: O=C(c1ccc(Cl)c(Cl)c1)N(c1ccccn1)c1ccccn1
38: CC1CCC(C(C)C)C(OC(=O)Cn2c[n+](C)c3ccccc32)C1 (stereo unspecified)
39: COc1ccc(COCC(O)CNCc2cccnc2)cc1OC (stereo unspecified)
40: NC(=O)C1CN(C(=O)Cn2ccc(C(F)(F)F)n2)c2ccccc2O1 (stereo unspecified)
assay / entry,31,32,33,34,35,36,37,38,39,40
HCMV NEC inh,10,-37,x,x,-1,x,21,x,-14,-18
Sa growth 42C,97,116,114,105,x,92,102,49,88,78
GIV Gai3 FP,104,x,105,98,103,100,x,107,x,x
Sa growth 42C second temp,60,90,87,86,x,85,102,68,94,93

# A second format for some results above.
# Results follow in this order: HCMV NEC inh | Sa growth 42C | GIV Gai3 FP | Sa growth 42C second temp
[26] Oc1[nH]c2ccccc2c1C=NCCCN1CCOCC1
→ -14 | 101 | 105 | 113
[27] c1ccc2sc(Cc3nn[nH]n3)nc2c1
→ -118 | 86 | 106 | 87
[28] CCCCn1c(CC(=O)O)nc2cc(S(=O)(=O)N3CCOCC3)ccc21
→ -24 | 94 | x | 99
[29] O=C(CSc1nc2ccccc2nc1N1CCOCC1)Nc1ccccc1
→ -3 | 90 | 103 | 84
[30] Cc1cc2c(cc(C(=O)NCc3cccnc3)n2Cc2ccc(Cl)cc2)o1
→ -1 | 111 | 112 | 78
[31] CSc1ccc(S(=O)(=O)N2CC(=O)Nc3ccccc32)cc1
→ 10 | 97 | 104 | 60
[32] O=C(O)c1c(Cl)nc2ccccn12
→ -37 | 116 | x | 90
[33] Cc1nc(N2CCC(C)CC2)c2c(C)c(C(=O)N3CCN(c4ccc(F)cc4)CC3)sc2n1
→ x | 114 | 105 | 87
[34] CSc1nn(Cc2ccc(F)cc2)c(N)c1S(=O)(=O)c1ccc(Cl)cc1
→ x | 105 | 98 | 86
[35] COc1ccc(C2C(C(=O)O)c3cc(OC)c(OC)cc3C(=O)N2C)cc1OC (stereo unspecified)
→ -1 | x | 103 | x
[36] Cc1c(C(=O)NC(=S)Nc2ccc(N3CCOCC3)cc2)oc2ccccc12
→ x | 92 | 100 | 85
[37] O=C(c1ccc(Cl)c(Cl)c1)N(c1ccccn1)c1ccccn1
→ 21 | 102 | x | 102
[38] CC1CCC(C(C)C)C(OC(=O)Cn2c[n+](C)c3ccccc32)C1 (stereo unspecified)
→ x | 49 | 107 | 68
[39] COc1ccc(COCC(O)CNCc2cccnc2)cc1OC (stereo unspecified)
→ -14 | 88 | x | 94
[40] NC(=O)C1CN(C(=O)Cn2ccc(C(F)(F)F)n2)c2ccccc2O1 (stereo unspecified)
→ -18 | 78 | x | 93

# Further results:
41: CCCN1CCN(CC(=O)NC(C)c2ccccc2)CC1 (stereo unspecified)
42: O=C(CN1C(=O)c2cccnc2Oc2ccccc21)NCCc1c[nH]c2ccccc12
43: COC(=O)c1sc(C(C)(C)C)cc1NS(=O)(=O)c1ccc(OC)cc1
44: COc1ccc(N2C3=[N+](CCCCC3)CC2(O)c2ccccc2)cc1 (stereo unspecified)
45: CCS(=O)(=O)CCSc1nsc(SCCS(=O)(=O)CC)c1C#N
46: Cc1cc(OC(C)C(=O)Nc2c(C(=O)c3ccc(F)cc3)oc3ccccc23)ccc1Cl (stereo unspecified)
47: Cn1c(CC(=O)c2ccc(O)cc2O)nc2ccccc21
48: CCN(CC)C(=O)CN1C(=O)/C(=C/c2ccccc2)SC1=S
49: CCN1C(=O)c2ccccc2Sc2ccc(NC(=O)Nc3ccc(Br)c(C)c3)cc21
50: Cc1cc(N2CCCCC2)nc2ccc(NC(=O)/C=C/c3ccc(OC(C)C)cc3)cc12
assay / entry,41,42,43,44,45,46,47,48,49,50
HCMV NEC inh,1,-5,6,6,1,1,-27,-70,x,-26
Sa growth 42C,89,x,99,86,100,91,101,85,86,91
GIV Gai3 FP,102,103,104,x,100,111,101,107,106,105
Sa growth 42C second temp,100,x,97,91,102,100,82,101,69,92

51: COc1ccc(-c2nc(C#N)c(NCc3ccccc3)o2)cc1
52: O=C(O)c1cccc(N2CCCC2=O)c1
53: COc1ccc(C)cc1NC(=O)Cn1c(=O)c(C(F)(F)F)nc2ccccc21
54: O=C(NCc1ccccc1)c1cnn(-c2ccccc2)c1
55: CCc1cccc2c(-c3ccccc3)nc(SCC(=O)Nc3ccccc3OC)nc12
56: CCCCOC(=O)c1ccc(-c2n[nH]c(=O)c3ccccc23)cc1
57: O=S(=O)(c1ccc(-c2ccc(S(=O)(=O)N3CCSCC3)cc2)cc1)N1CCSCC1
58: Cc1cc(SC2CCOC2=O)nc2ccccc12 (stereo unspecified)
59: COc1ccc(OCCCN2CCCCC2)cc1
60: O=C(Oc1cccnc1I)c1cccc(C(F)(F)F)c1
assay / entry,51,52,53,54,55,56,57,58,59,60
HCMV NEC inh,-6,x,x,-3,7,-27,-13,12,0,-13
Sa growth 42C,92,94,100,x,107,x,127,99,88,x
GIV Gai3 FP,x,97&106,107,111,96,101,107,x,105,99
Sa growth 42C second temp,93,94,87,x,98,x,100,90,100,x

61: CCCN=C(Nc1ccc(Cl)cc1)c1cccnc1
62: Cc1cc(=O)[nH]c(SCC(=O)C23CC4CC(CC(C4)C2)C3)c1C#N
63: CC(=O)N1CCc2cc(S(=O)(=O)NC(CC(C)C)C(=O)NCCc3ccc(C)cc3)ccc21 (stereo unspecified)
64: O=C(COc1ccc2ccccc2c1)NCc1ccc2c(c1)OCO2
65: Cc1cc(C)c(C)c(S(=O)(=O)N2CCC(C(=O)N(C)Cc3nc4ccccc4c(=O)[nH]3)CC2)c1C
66: O=C(CCc1ccccc1)Nc1ccc(-c2nnc(-c3ccccc3)o2)cc1
67: Cc1ccc2[nH]c(CSc3nnc(NC(=O)COc4ccccc4)s3)cc(=O)c2c1
68: CCc1ccc(NS(=O)(=O)c2cccs2)cc1
69: COc1cccc(-c2cc(C(=O)NCCCN3CCOCC3)on2)c1
70: Cc1cc(N2CCN(C3CCCCC3)CC2)n2nc(C)c(-c3ccc(F)cc3)c2n1
assay / entry,61,62,63,64,65,66,67,68,69,70
HCMV NEC inh,2,-14,-19,-7,-14,-5,x,5,-26,-20
Sa growth 42C,x,102,120,108,95,106,108,112,86,x
GIV Gai3 FP,105,x,105,x,x,104,101,x,101,107
Sa growth 42C second temp,x,78,86,73,90,90,89,103,82,x

71: Cc1ccc(-n2c(=O)c(C#N)cc3c(=O)n4ccccc4nc32)cc1
72: O=C(Nc1ccccc1Cl)C1CCCN(c2nc3cccnc3s2)C1 (stereo unspecified)
73: O=C(Cn1c(=O)n(-c2ccc(F)cc2)c(=O)c2ccccc21)NCc1ccccc1
74: Cc1ccc(-c2cn(-c3cccc(Cl)c3)c(S(=O)(=O)CC(=O)Nc3cccc(C)c3)n2)cc1
75: Cc1cccc2sc(N(Cc3cccnc3)C(=O)c3ccco3)nc12
76: Cc1ccc(C)c(Cn2c(=O)cc(C)c3c(C)nn(C)c32)c1
77: C=CC(=O)Nc1ccc(-c2nc3ccc(NC(=O)C=C)cc3[nH]2)cc1
78: CCC(C)NC(=O)c1cccc(C2CCCN(C(=O)NC(C)C)C2)c1 (stereo unspecified)
79: Cc1ccc(S(=O)(=O)N2CCN(Cc3nc4ccc(C)cc4o3)CC2)cc1
80: Cc1nc2nc(SCc3ccc(F)cc3Cl)nn2c(C)c1Cc1ccccc1
assay / entry,71,72,73,74,75,76,77,78,79,80
HCMV NEC inh,x,-20,-1,1,x,x,54*,-22,x,x
Sa growth 42C,88,x,102,103,105,80,108,x,101,88
GIV Gai3 FP,102,107,102,99,98,98,111,110,106,105
Sa growth 42C second temp,82,x,90,77,77,89,85,x,87,81

81: CCOC(=O)N1CCc2[nH]c3ccccc3c2C1
82: Cc1ccc(-c2noc(CCC(=O)N3CCCCC3)n2)cc1
83: Cn1c(C(C#N)C(=O)Cc2c(F)cccc2Cl)nc2ccccc21 (stereo unspecified)
84: COc1cc(Cl)c(C)cc1NC(=O)c1cnc(N2CCOCC2)c2ccccc12
85: CC1=NN(Cc2ccccc2Cl)C(=O)C1
86: CCOc1ccccc1NC(=O)NCCn1c(-c2ccc(F)cc2)nc2ccccc21
assay / entry,81,82,83,84,85,86
HCMV NEC inh,-28,1,-8,x,-8,7
Sa growth 42C,91,93,95,79,58,x
GIV Gai3 FP,x,104,x,106,x,104
Sa growth 42C second temp,80,96,94,89,47,x
